PrP 5UTR inh: suppresses PrP 5' UTR mRNA reporter expression; cell-based PrP 5' UTR mRNA reporter, plate reader; inhibition, % (no concentration beside the values); 340,000 tested, 0.35% active; AID 488862;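 active = every replicate at 50% or more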;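 also: 0 = median of the neutral control wells; tested in H4 reporter cells; numbers are from one replicate; inactives centre near -14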
Bead autofluor: counter-screen for toxin protease inhibitors: compound fluorescence; compound autofluorescence counterscreen, microsphere flow cytometry; active compounds read high; fluorescence intensity (no concentration beside the values); 360,000 tested, 3.1% active;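 active = at least 3 SD above the mean of all compounds, about 16000 in these data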;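 also: 100 nL of 1 mM stock went into each well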
* = called active by the depositor.

mol	PrP 5UTR inh	Bead autofluor
C[C@H](CO)N1C[C@H](C)[C@@H](CN(C)Cc2ccc3c(c2)OCO3)Oc2c(NC(=O)Cc3ccccc3)cccc2C1=O	-12	3615
CC12CCC(=O)C=C1CC(N1CC1)C1C2CCC2(C)C(O)CCC12 (centres undefined)	-15	4338
O=C(O)c1nnsc1-c1csnn1	47	2825
CCN1C[C@@H]2[C@@H]3C(=O)N(C)C(=O)[C@@H]3[C@](C)(C1=O)N2C(=O)c1ccc(C(F)(F)F)cc1	-25	3973
C=CCC[C@H](Cc1ccc(F)cc1)C(=O)OC[C@@H](NC(=O)[C@@H](CC=C)CC(=O)N(CCO)Cc1ccccc1)C(C)(C)C	-16	3024
O=C(/C=C/c1ccccc1)Nc1cccc(C(=O)NCCCCc2ccccc2)c1	-28	3319
COc1ccc(NC(=O)[C@@H]2CCCN2S(=O)(=O)c2cccc3cccnc23)cc1	-8	3813
C[C@H]1CN=C(N(C)C)N1CCc1ccccc1	-7	4058
C=C1C(=O)O[C@@]23[C@H]1CC[C@@H](C)[C@@H]2CC[C@@]1(C)O[C@@H]31	7	3857
C=C[C@@H]1c2cc(C)ccc2N(S(=O)(=O)c2ccc(C)cc2)[C@H](c2ccccc2)C1(C#N)S(=O)(=O)c1ccccc1 (some centres undefined)	-17	3975
CN1OC[C@@H]2CN(C(=O)CCc3ccccc3)[C@H](c3cccc(-c4ccccc4)c3)C[C@@H]21	-31	4033
Cc1cc2c(cc1C)C(=O)C(=O)N2	-77	3691
CC(C)C(=O)Nc1ccc(COc2ccccc2CN(Cc2ccccc2)C(=O)OC(C)(C)C)cc1	-16	4029
CCC(C)[C@@H](CN)NCC1(c2ccccc2)CC1 (some centres undefined)	-18	4851
COc1ccc(CCNCc2ccc(-c3ccccc3)cc2)cc1OC	0	3884
NC(=O)c1ccc[n+]([C@H]2O[C@@H](COP(=O)([O-])OP(=O)(O)OC[C@H]3O[C@@H](n4cnc5c(N)ncnc54)[C@H](O)[C@@H]3O)[C@H](O)[C@@H]2O)c1	-18	5290
Cc1nn(-c2ccccc2)c2c1CC(=O)Nc1ccccc1-2	64*	3698
C=CCNC(=S)Nc1ccc(OC(=O)Nc2ccc(Cl)c(Cl)c2)cc1	-8	3017
COc1ccccc1-c1cccc([C@@H]2C[C@H]3[C@H](CON3C)CN2Cc2ccccc2)c1	-25	3497
COC(=O)[C@]1(CC(C)C)N[C@H](c2ccc(-c3ccccc3)cc2)[C@@H]2C(=O)N(C)C(=O)[C@@H]21	-22	3576
CC(C)OC(=O)c1ccc(NCc2cc(O)ccc2O)cc1	-28	3808
CC(Sc1nnc(C2CC2)n1C1CC1)C(=O)N(C)Cc1cccc(F)c1 (centres undefined)	-2	3897
C[C@H]1CN([C@@H](C)CO)C(=O)Cc2cc(NS(=O)(=O)c3cccs3)ccc2O[C@H]1CN(C)S(=O)(=O)c1cn(C)cn1	-9	4257
NCCCCC(N)c1cn([C@@H](CCC(=O)O)C(=O)N2CCNCC2)nn1 (some centres undefined)	-15	3577

The list goes on; it opens with the two that closed the last part.
mol	PrP 5UTR inh	Bead autofluor
C[C@H]1CN([C@@H](C)CO)C(=O)Cc2cc(NS(=O)(=O)c3cccs3)ccc2O[C@H]1CN(C)S(=O)(=O)c1cn(C)cn1	-9	4257
NCCCCC(N)c1cn([C@@H](CCC(=O)O)C(=O)N2CCNCC2)nn1 (some centres undefined)	-15	3577
COC(=O)C1=C(c2ccc(F)cc2OCc2ccccc2)C[C@@H]2CC[C@H]1N2C(=O)NCC1CC1	-15	3746
Cn1/c(=N/N=C/c2ccccn2)sc2ccccc21	-83	3997
O=C1N[C@H](Cc2c[nH]c3ccccc23)COC(=O)[C@H](Cc2ccc(F)cc2)C/C=C\C[C@H]1CC(=O)N(CCO)Cc1ccccc1	-10	3858
C=CCO/N=C/C1C(=O)CC(C)(C)CC1=O	-9	2500
Cc1csc(CNc2ncnc3ccc(-c4ccccc4Cl)cc23)c1	-10	3940
O=C1C[C@@H]2c3c(cccc3CN1Cc1ccccc1F)C[C@@H](O)[C@H]2O	-9	3492
NC1=NN(c2c(Cl)cc(Cl)cc2Cl)C(=O)C1	-12	3825
CCOC(=O)N1CCC2CC1c1cc(-c3cccc(OC)c3)ccc12 (centres undefined)	-37	3867
CC=C(C)C1(CCC)C(=O)NC(=S)NC1=O	-20	3389
C=CC[C@@H](CC(=O)NCCO)C(=O)N[C@@H](C)COC(=O)[C@@H](CC=C)Cc1ccc(F)cc1	-23	3809
N=c1ccn2c(n1)O[C@H]1[C@@H](CO)[C@H](O)O[C@H]12	52*	4321
COc1cc(CCc2ccccc2)c(C(=O)O)c(O)c1CC=C(C)C	-8	5299
COC(=O)[C@]1(Cc2ccccc2)N[C@H](c2ccc(-c3cccc(Cl)c3)c(OC)c2)[C@@H]2C(=O)N(C)C(=O)[C@@H]21	-2	8505
CCOC(=O)c1sc(NC(=O)C(CC)Sc2nnc3c4ccccc4n(C(C)C)c3n2)nc1C (centres undefined)	-33	5367
C[C@H](O)[C@@H]1C(=O)N2CCc3ccc(N4CCN(C)CC4)cc3[C@@H]2C[C@@H]1N(C)C(=O)NC1CCCCC1	-10	3692
OCC[C@H]1C[C@H](O)[C@@H](O)[C@]2(OCc3ccccc32)O1	-12	3326
Cc1ccc(C(=O)NNC(=O)c2ccc(NS(=O)(=O)c3cccs3)cc2)o1	-23	3815
O=C(C(=Cc1ccccc1)CN1CCCCC1)c1ccccc1	-54	4219
O=C1C(CN2CCCC2)CCCC1CN1CCCC1 (centres undefined)	-3	3672
COc1cc(O)c(C=Nc2ccccc2NS(=O)(=O)c2ccc(C)cc2)c(OC)c1	-21	2882
C[C@]12C(=O)N(c3cccc(F)c3)C(=O)N1[C@H]1c3ccccc3OC[C@@H]1[C@H]2c1ccccc1	-26	3350
COc1ccc([C@H]2CC(=O)C=C(c3ccc(Cl)c(C(F)(F)F)c3)C2)cc1OC	-3	2897
CN(Cc1ccco1)c1ncnc2ccc(-c3ccoc3)cc12	0	4167
OCC(CO)c1cnnc2ccccc12	-9	4605
Cc1ccc(S(=O)(=O)N2CCN(C(=O)COC(=O)COc3cccc(C(F)(F)F)c3)CC2)c(C)c1	17	2967
COc1ccc(-c2coc3cc(O[C@@H]4O[C@H](CO)[C@@H](O)[C@H](O)[C@H]4O)c(OC)cc3c2=O)cc1	-32	4171
COC(=O)[C@@]1(Cc2ccc(F)cc2)[C@H]2c3cc(C(=O)N(C)C)[nH]c3C[C@H]2CN1C(=O)c1ccccc1	-6	3828
COc1ccc(CCNC(=O)CN2c3cccc4cccc(c34)S2(=O)=O)cc1	-15	5326
Cc1cc(CC(=O)O)n(C)c1C(=O)c1ccc(Cl)cc1	0	6211
CCC1(NS(=O)(=O)c2ccc(N)cc2)C(=O)N(C)C(=O)N(C)C1=O	28	2978
Cc1ccc(S(=O)(=O)N2[C@@H](c3cccc(Cl)c3)C(C(=O)O)=CC[C@H]2c2cccs2)cc1	-10	3349
CC(C)(C)OC(=O)C[C@H]1C/C=C\C[C@@H](CC(=O)N[C@@H](CO)Cc2ccccc2)C(=O)N2CCC[C@H]2COC1=O	-12	3392
Cc1ccc([C@@H]2CC=C(C(=O)O)[C@H](c3ccc(F)cc3)N2S(=O)(=O)c2ccc(C)cc2)cc1	-21	4093
CN(C)S(=O)(=O)n1cnc([C@@H]2[C@@H]3C(=O)OC[C@@H]3C[C@]23N=CN(Cc2ccccc2)C3=O)c1	-18	3031
COc1ccc2c(c1)-c1nc(/N=C/c3ccc(O)cc3)sc1CC2	-11	2168
C#CCOCCOCCOCCNc1nc(N2CCOCC2)nc(N2CCN(C(=O)[C@H](CCCCN)n3cc(CCCC)nn3)CC2)n1	-11	3636

Single records (already shown). Order of screens: PrP 5UTR inh | Bead autofluor
COc1ccc(-c2coc3cc(O[C@@H]4O[C@H](CO)[C@@H](O)[C@H](O)[C@H]4O)c(OC)cc3c2=O)cc1 as listed: -32 | 4171
Cc1ccc(S(=O)(=O)N2[C@@H](c3cccc(Cl)c3)C(C(=O)O)=CC[C@H]2c2cccs2)cc1 as listed: -10 | 3349
Cc1ccc([C@@H]2CC=C(C(=O)O)[C@H](c3ccc(F)cc3)N2S(=O)(=O)c2ccc(C)cc2)cc1 as listed: -21 | 4093
COc1ccc2c(c1)-c1nc(/N=C/c3ccc(O)cc3)sc1CC2 as listed: -11 | 2168

(listing goes on)
mol	PrP 5UTR inh	Bead autofluor
COc1cccc(CNC[C@H]2O[C@@H](n3cnc(C(N)=O)n3)[C@H](O)[C@@H]2O)c1OCc1ccc(F)cc1Cl	-22	3041
COc1ccc(/C=N/N2CCN(C)CC2)c(OC)c1OC	-12	4535
CC1=CC(=O)C2=C(C)C[C@H](O)[C@@H]3[C@H](OC(=O)[C@H]3C)[C@@H]12	-2	5842
Cc1ccc(C2=CC(=O)C[C@H](c3ccc4c(c3)OCO4)C2)cc1	-6	4013
CCN(CC)CCNC(Cc1ccccc1)c1cccc(OC)c1 (centres undefined)	-28	4281
C=CCOc1ccc2c3c(c(=O)oc2c1)CCCC3	-43	3605
C[C@]12C(=O)N(c3ccccc3)C(=O)N1[C@H]1c3ccccc3OC[C@@H]1[C@H]2c1ccccc1	-21	3322
COc1ccc(C2=CC(=O)C[C@H](c3ccc(F)cc3)C2)c(F)c1F	-8	3856
O=[N+]([O-])/C(=C\Nc1ccccc1Cl)S(=O)(=O)c1ccccc1	-20	3122
CCOC(=O)[C@@H]1[C@H]2COc3ccc(Br)cc3[C@@H]2N2C(=O)N(c3ccc(Cl)cc3)C(=O)[C@@]12C	-23	3089
CCN1C(=O)[C@H]2[C@@H](c3ccc(C)cc3)N3C(=O)N(c4cccc(Br)c4)C(=O)[C@@]3(C)[C@H]2C1=O	0	4213
O=C(CS(=O)(=O)c1ccccc1)Nc1ccccc1Br	-38	4018
COc1ccc(NC(=O)Nc2cccc3c2O[C@H](CN(C)C(=O)NC2CCCCC2)[C@@H](C)CN([C@H](C)CO)C3=O)cc1	-11	3971
C=C1C(=O)C2=CC1CCC(=O)C1(C)CCC(OC(C)=O)C(C)(C)C1CC2O (centres undefined)	-5	3978
CC(C)(C)OC(=O)C[C@@H]1C/C=C\C[C@H](CC(=O)N(CCO)Cc2ccccc2)C(=O)NC[C@H](c2ccccc2)OC1=O	-35	4573
O=S(=O)(c1ccc2c(c1)C(O)c1ccccc1CC2)C(F)(F)F (centres undefined)	-14	4302
COC(=O)C1=C(c2ccc(F)cc2OCc2ccccc2)C[C@@H]2CC[C@H]1N2C(=O)NCCNC(C)=O	-5	4013
O=C1C=C(c2ccc3c(c2)OCO3)C[C@@H](c2ccc(Cl)cc2)C1	1	2965
COc1ccccc1/C=N/NC(=O)CSc1cc(C)nc2ccccc12	-27	4322
COc1ccc(C=O)c(OCc2cn(CC(=O)c3ccc(O)cc3)nn2)c1	-33	3659
COc1cc(C(=O)NNC(=O)CCOc2ccccc2)cc(OC)c1OC	-16	3541
CN1C[C@H]2CON(C)[C@H]2C[C@H]1c1cccc(Br)c1	-20	3621
O=C1CCC[C@@H]2[C@H](Cc3ccccc3)[C@@H](O)C[C@@H]3CCN1[C@@H]32	-19	3778
O=C1CC/C=C\C[C@@H](CC(=O)N(CCO)Cc2ccccc2)C(=O)N2CCC[C@H]2CO1	-9	3689
CCOC(=O)c1cocc1C(=O)O	-6	3029
CN1CCC[C@H]1CCNC(=O)c1c(-c2ccsc2)sc2ccccc12	-15	3429
COC(=O)C1=C(c2c(C)noc2C)C[C@@H]2CC[C@H]1N2C(=O)NC1CCCCC1	-32	3916
O=P(NCc1ccccc1)(OCc1ccccc1)OCc1ccccc1	-21	4364
CNC(=O)[C@@H]1CCC(=O)N1	-13	3072
C[C@H](CO)N1C[C@H](C)[C@@H](CN(C)S(=O)(=O)c2ccc(F)cc2)Oc2c(NC(=O)CCC(F)(F)F)cccc2C1=O	-34	3526
COC(=O)[C@H](CC(C)C)NC(=O)Cn1cnc2c(SC)nc(N)nc21	-25	3908
O=C(C[C@H]1C/C=C\C[C@@H](Cc2ccc(F)cc2)C(=O)OC[C@@H](Cc2c[nH]c3ccccc23)NC1=O)NCCO	-23	4477
COc1ccc(S(=O)(=O)N(C)C[C@H]2Oc3c(NC(=O)Nc4ccccc4)cccc3C(=O)N([C@H](C)CO)C[C@@H]2C)cc1	1	3738
C[C@H](CO)N1C[C@H](C)[C@@H](CN(C)S(=O)(=O)c2cn(C)cn2)Oc2ccc(NC(=O)Nc3ccc4c(c3)OCO4)cc2C1=O	3	3872
COC(=O)C1=C(c2ccc(F)cc2OCc2ccccc2)C[C@@H]2CC[C@H]1N2C(=O)NCc1ccc2[nH]ccc2c1	-1	3584
COC(=O)[C@@]12CCCCN1[C@H](c1ccc(-c3ccc(F)cc3)c(OC)c1)[C@@H]1C(=O)N(C)C(=O)[C@@H]12	-7	2943
CCn1cnc2cc(NC(=O)COc3ccc(C)cc3)ccc21	-5	3608
CCOc1ccc([C@@H]2CC=C(C(=O)O)[C@H](c3ccc(F)cc3)N2S(=O)(=O)c2ccc(C)cc2)cc1	-11	3326
CC(C)N1CCN(c2ccc(OCC3COC(Cn4cncn4)(c4ccc(Cl)cc4Cl)O3)cc2)CC1 (centres undefined)	-5	3257
O=C(Cc1n[nH]c(=O)c2ccccc12)OCC(=O)c1ccccc1	-15	2930
C[C@]12CC[C@H](O)C[C@H]1CC[C@@H]1[C@@H]2CC[C@]2(C)[C@@H](C3=CC(=O)OC3)CC[C@]12O	77*	6024
CC(C)C[C@@H](CNCC(=O)[C@H](Cc1ccccc1)NC(=O)c1[nH]cnc1C(=O)N[C@@H](C)CN)NC(=O)c1nc[nH]c1C(=O)N[C@@H](C)C(=O)O	-12	3139
COC(=O)C1=C(C)N(Cc2ccccc2)C(=NCc2ccccc2)N[C@H]1c1ccccc1	-19	4462

The list is partial, so the mix of outcomes need not match the whole.
